SMN2 splice enh: qHTS Assay for Enhancers of SMN2 Splice Variant Expression; HEK293 SMN2-luciferase splicing reporter, luminescence, 30-36 h; 210,000 tested, 2.8% active; AID 1458, 2008; Potency, µM (doses to about 46.1 µM), for the others: top-dose activity change, positive = activation, hits mostly activators; note: % of control where 0% means no effect; nearly all actives have a fitted effect of over 55% in size
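HEK293 cells carry an SMN2 minigene-luciferase reporter in which exon 7 inclusion puts luciferase in frame. Cells were seeded at 2000 cells/well, attached for 10-12 hours, then exposed to compounds for 30-36 hours at 37C before ONE-Glo luminescence.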
KinaseGlo FLuc: Counterscreen for Luciferase (Kinase-Glo TM) Inhibition; 200,000 tested, 0.28% active; Kinase-Glo luciferase, ATP luminescence, 8 min; Potency, µM (highest dose often 38.3 µM), inactives show top-dose activity change, negative = inhibition, hits mostly inhibitors; Luciferin 4-monooxygenase (Photuris pensylvanica), Q27757; AID 1379, 2008; note: % is set by controls: 0 for no effect and ±100 for the full control effect; nearly all actives have a fitted effect of over 60% in size
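Recombinant Kinase-Glo luciferase, 10 uM ATP (linear range), luciferin; imidazole pH 7.2 / KCl / MgCl2 / Tween / BSA buffer; 8 min RT; luminescence.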
Epigenetic derep: Quantitative High-Throughput Screen for Regulators of Epigenetic Control; murine LDR cells, GFP reporter derepression, 30 h; Potency, µM (doses to about 53.9 µM), inactives show at the highest dose GFP activation, most hits filed as activators; 280,000 tested, 0.2% active; note: % of control where 0% means no effect; nearly all actives have a fitted effect of over 60% in size
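Reporter derepression read as number of fluorescent GFP-positive objects, 20-120 um in size, counted by laser-scanning cytometer. Mouse LDR line with an epigenetically silenced CMV-GFP locus; compound incubation 30 h, 37 C.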
NPSR antag: qHTS Assay for Antagonists of the Neuropeptide S Receptor: cAMP Signal Transduction; CHO-NPSR cells, cAMP TR-FRET, antagonist mode; 220,000 tested, 1% active; Q6W5P4; Potency, µM (highest dose often 38.3 µM), inactives show top-dose activity change, negative = inhibition, actives largely listed as inhibitors; note: % is set by controls: 0 for no effect and ±100 for the full control effect; nearly all actives have a fitted effect of over 50% in size; many of its hits are not listed in these tables
Target sequence (Q6W5P4 whole entry, looked up): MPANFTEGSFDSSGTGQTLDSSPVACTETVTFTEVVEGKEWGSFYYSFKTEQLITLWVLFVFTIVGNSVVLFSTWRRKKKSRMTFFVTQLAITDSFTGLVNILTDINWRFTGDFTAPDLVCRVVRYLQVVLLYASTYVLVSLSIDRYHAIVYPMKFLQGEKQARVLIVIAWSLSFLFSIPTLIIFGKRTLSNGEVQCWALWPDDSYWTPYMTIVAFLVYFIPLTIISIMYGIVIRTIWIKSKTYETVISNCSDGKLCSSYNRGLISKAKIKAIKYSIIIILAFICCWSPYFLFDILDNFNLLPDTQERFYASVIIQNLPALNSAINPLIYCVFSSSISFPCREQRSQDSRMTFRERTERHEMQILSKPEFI
IMPase Li inh: qHTS Assay for Identifying the Cell-Membrane Permeable IMPase Inhibitors: Potentiation with Lithium; CHO-M1 cells, IP1 TR-FRET (IP-One), carbachol + lithium; Potency, µM (titrated, usually from 59.4 µM), without a hit: at the highest dose activity, negative = IMPase inhibition, hits mostly inhibitors; 210,000 tested, 0.35% active; AID 1457, 2008;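 note: IP1 builds up when IMPase is blocked and the TR-FRET signal falls; plate controls were basal vehicle for no effect and high inhibitor control for full effect; nearly all actives have a fitted effect of over 50% in size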
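Lithium-sensitised IP1 accumulation assay; M1-expressing CHO cells treated 30 min at 37C with compound. Competitive antibody detection by time-resolved FRET followed a 10 min room-temperature lysis step.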
RECQ1 helicase: qHTS Assay for Inhibitors of RecQ-Like Dna Helicase 1 (RECQ1); Potency, µM (titrated, usually from 57.3 µM), inactives show at the top dose activity, negative = inhibition, most hits filed as inhibitors; RECQ1 DNA unwinding, red fluorescence kinetic read; 240,000 tested, 0.54% active; AID 2549, 2010;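 note: plate controls were vehicle for no effect and no enzyme for full effect; nearly all actives have a fitted effect of over 30% in size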
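50 nM RECQ1T1 preincubated 15 min with compound in Tris pH 8.0 buffer with MgCl2, DTT, Tween-20 and 2.5 ug/ml poly(dI-dC); started with 200 nM TAMRA/BHQ-2 forked duplex and 2 mM ATP. Unwinding read as fluorescence (525/598 nm), two reads 2 h apart.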
KDM4E inh: qHTS Assay for Inhibitors of Human Jumonji Domain Containing 2E (JMJD2E). JMJD2E catalytic domain, FDH-coupled NADH fluorescence (FDH is formaldehyde dehydrogenase). AID 2147, 2009. 230,000 tested, 1.6% active. Lysine-specific demethylase 4E (Homo sapiens), B2RXH2. Potency, µM (highest dose often 57.1 µM), without a hit: at the highest dose activity change, negative = inhibition, actives largely listed as inhibitors; active = well fitted inhibition curve with a large enough effect, not every such curve was filed as active; inconclusive = small, poorly fitted or top-dose-only effect, or another doubt; inactive = no such curve, though single readings can be large or run the other way;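 note: 0% = wells with enzyme and -100% = buffer wells without enzyme; nearly all actives have a fitted effect of over 50% in size; many of its hits are not listed in these tables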
Target sequence (B2RXH2 1-337 limits assumed): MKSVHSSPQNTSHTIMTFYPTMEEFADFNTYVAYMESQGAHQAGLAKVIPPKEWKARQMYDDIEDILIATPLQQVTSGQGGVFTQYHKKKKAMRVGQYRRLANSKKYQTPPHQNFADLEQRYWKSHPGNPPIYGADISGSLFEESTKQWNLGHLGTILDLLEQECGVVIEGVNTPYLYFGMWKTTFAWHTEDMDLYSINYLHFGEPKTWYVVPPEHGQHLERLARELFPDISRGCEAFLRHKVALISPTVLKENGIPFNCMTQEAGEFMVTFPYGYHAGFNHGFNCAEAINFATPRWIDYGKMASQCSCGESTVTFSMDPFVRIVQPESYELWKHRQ
An asterisk follows results filed as active; i = inactive; ? = inconclusive; · = no result given; & = joins results of further samples; [ ] = remark or other dose. Unless noted, calls come from the whole dose curve; as a rule, active = well fitted curve in the direction sought with a large enough effect; inconclusive = small, poorly fitted or top-dose-only effect, or another doubt; inactive = no such curve, though single readings can be large; an effect the other way counts as inactive or inconclusive. Potency is the fitted concentration of half-maximal effect. The list is partial, so the mix of outcomes need not match the whole.

SMILES | SMN2 splice enh | KinaseGlo FLuc | Epigenetic derep | NPSR antag | IMPase Li inh | RECQ1 helicase | KDM4E inh
CSc1nc(-c2ccco2)cc(C(F)(F)F)c1C#N | -12.3% | -0.5% | 2.3% | ? | 5.8% | -5.5% | ?
COc1ccc(CCNC(=O)NC2CCCCC2)cc1 | 1.5% | -3.2% | -1.2% | 5.2%[46.1 µM] | 11.4% | -1.5% | 2.6%
COc1ccc(CNC2CCCCC2)cc1 | 16.1% | 1.1% | 2.0% | 0.2%[46.1 µM] | 5.1%[38.3 µM] | i | -6.4%
Cc1ccsc1/C=N/n1c(COc2ccccc2)n[nH]c1=S | -10.8% | 3.2% | 0.0% | -24.4% | -0.3% | -3.8% | 1.4%
O=C(Nc1cccc([N+](=O)[O-])c1)C1C2CC/C=C\CCC21 (stereo unspecified) | · | · | -0.3% | 8.3%[7.67 µM] | · | i | 7.5%
c1cc2c3c(cccc3c1)C(N1CCCCCC1)=N2 | -20.4% | -5.7% | -1.6% | -25.6%[46.1 µM] | 37.5%[activator][38.3 µM] | 5.6% | ?
CCOc1cc(/C=N/NS(=O)(=O)c2ccc(OC)cc2)ccc1OCCN1CCOCC1 | -1.4% | 1.9% | -3.0% | -0.5% | 2.2% | -0.8% | -3.0%
CC(=O)NNS(=O)(=O)c1ccc(-c2cc(C(F)(F)F)n(C)n2)s1 | · | · | 1.7% | 8.4%[7.67 µM] | · | -8.3% | 1.7%
Cn1c(=NC(=O)C2CCN(S(=O)(=O)c3cccs3)CC2)sc2ccccc21 | -11.3% | -1.3% | -0.2% | -9.0%[46.1 µM] | -20.9%[38.3 µM] | -14.2% | 4.0%
Oc1cc(NCc2cccnc2)ccc1-c1nc2ccccc2o1 | 11.2µM* | -0.9% | -3.2% | ? | 39.3%[activator][38.3 µM] | -10.3% | ?
CCOc1ccc(N/C=C/C(=O)c2ccc(C)cc2)c([N+](=O)[O-])c1 | ? | -27.4% | -1.0% | -18.2%[46.1 µM] | 0.2%[38.3 µM] | -0.7% | -1.3%
CC1CC(C)CN(c2nc(N(C)c3ccccc3)nc(N)c2[N+](=O)[O-])C1 (stereo unspecified) | · | · | 0.1% | -48.7% | · | -11.2% | -1.3%
CC(=O)N1[C@H](C)C=C[C@]1(Cc1ccccc1)C(=O)NCCN1CCOCC1 | -0.4% | -4.7% | 1.7% | · | -1.8% | -1.9% | -15.4%
Cc1ccc(-n2c(=O)cc(N3CCCCCC3)[nH]c2=O)cc1 | -5.7% | -1.9% | -1.0% | 1.4%[46.1 µM] | -2.1% | -7.9% | 0.2%
C[C@]12CCC(=O)C=C1CCC1C2C(=O)C[C@]2(C)C1CC[C@]2(O)C(=O)CO (stereo partly specified) | 5.8% | -4.6% | 1.1% | · | 1.9% | -5.6% | -2.0%
Nn1c(SCC(=O)Nc2ccc3c(c2)OCCO3)nnc1C(F)(F)F | 12.9% | 7.2% | -1.0% | -21.4%[46.1 µM] | -0.6%[38.3 µM] | i | -2.2%
Cn1nc(-c2ccc(S(N)(=O)=O)s2)cc1C(F)(F)F | · | · | 2.5% | 3.5%[7.67 µM] | · | -1.6% | 2.7%
Nc1nnc(SCC(=O)c2ccccc2)s1 | 19.4% | 0.3% | -2.9% | 5.9%[46.1 µM] | 0.5%[38.3 µM] | 6.6% | -0.2%
O=C(O)/C=C/C(=O)Nc1ccccc1-c1ccccc1 | 8.8% | 2.8% | 0.9% | 1.8%[46.1 µM] | -6.0%[38.3 µM] | -1.7% | 0.7%
O=C(Cn1c(=O)[nH]n(-c2ccccc2)c1=O)N1CCCc2ccccc21 | 20.9% | 2.1% | 1.1% | -5.2%[46.1 µM] | 29.7%[38.3 µM] | -11.5% | -1.1%
CC(=O)Oc1ccc(/C=N/NC(=O)C2CCCN2S(=O)(=O)c2ccc(Cl)cc2)cc1 (stereo unspecified) | -1.8% | -1.0% | 1.8% | -10.4%[46.1 µM] | 14.1%[38.3 µM] | i | -5.8%
COc1ccc(CNC(=O)c2cc(-n3cnnc3)ccc2Cl)cc1 | -7.1% | 2.6% | -3.2% | -5.2%[46.1 µM] | 4.7%[38.3 µM] | -10.9% | -0.6%
Cc1ccc(N2C(SCC(=O)O)=NC(=Nc3cccc(C)c3)C23CCCC3)cc1 | -16.9% | -1.9% | 0.3% | -8.9% | -3.7% | -7.4% | -27.1%
Cc1ccc(-n2c(=O)cc(N3CC(C)CC(C)C3)[nH]c2=O)cc1 (stereo unspecified) | 16.0% | 0.2% | -0.4% | 0.4%[46.1 µM] | -2.5%[38.3 µM] | 0.5% | -0.1%
O=C(NCCOc1ccccc1)c1ncn[nH]1 | 20.1% | 2.3% | 0.0% | -2.6%[46.1 µM] | 3.7%[38.3 µM] | -0.2% | 0.7%
COc1ccccc1/C=C/C=N/n1c(COc2ccccc2)n[nH]c1=S | -10.9% | -4.0% | 9.4% | ? | -4.5%[38.3 µM] | -15.6% | -29.5%
COC(=O)c1cc2c(C)cc3ccc(C)cn3c-2c1C(=O)OC | 5.9% | -5.0% | -1.0% | 4.3%[46.1 µM] | 10µM* | 10.5% | ?
COc1cccc(CNC(=O)c2cccc(Br)c2)c1 | -4.1% | 0.5% | 0.0% | 0.6% | 1.9% | -11.2% | -1.2%
CCN(CCNC(=O)C1CCN(S(=O)(=O)CC)CC1)c1ccccc1 | 12.3% | -0.5% | -6.3% | -11.4%[46.1 µM] | 20.7%[38.3 µM] | -10.8% | 3.4%
COc1ccc(NC(=O)C(C)Sc2ccccc2)cc1 (stereo unspecified) | 2.8% | -2.8% | -1.0% | -21.0%[46.1 µM] | -9.5%[38.3 µM] | -6.4% | 1.1%
COc1cc(OC)c(C2CC(=O)N3CN(c4ccccc4)CSC3=C2C#N)cc1OC (stereo unspecified) | 0.1% | -1.6% | 2.2% | -11.7%[46.1 µM] | -3.3%[38.3 µM] | 7.6% | ?
Cc1cc(Cl)ccc1OCC(=O)N[C@@H](Cc1ccccc1)c1nc2ccccc2[nH]1 | -19.4% | -2.9% | -1.0% | -44.4% | 0.0% | -9.4% | -8.4%
CNC(=O)c1cc(Cl)c(OC)c(OC)c1 | 7.8% | 1.9% | -1.0% | 14.8% | -2.0% | -9.5% | -7.3%
CC(C)CN(C[C@@H](O)[C@H](Cc1ccccc1)NC(=O)O[C@H]1CCOC1)S(=O)(=O)c1ccc(N)cc1 | · | 3.0%[39.9 µM] | 0.7% | · | 1.8% | -3.6% | ·
COc1ccc(CCCc2nnc(SCC(=O)Nc3ccc(OC)cc3)o2)cc1 | -5.7%&-11.7% | -3.2% | -0.3%&-1.9% | 10.4% | 4.1% | i | -1.5%
Cc1cccc(C)c1NC(=O)NC1(C(=O)N2CCOCC2)CCCCC1 | -17.7% | -0.6% | 2.3% | 8.7% | -1.5% | -15.1% | 1.7%
O=C(COC(=O)c1c(F)cccc1F)c1ccc[nH]1 | · | · | 1.1% | 6.4%[7.67 µM] | · | -12.4% | 4.3%
O=C(Nc1nnc(CCN2CCCCC2)s1)c1ccccc1Cl | 6.6% | 2.2% | 1.1% | 12.0% | 12.9% | -5.5% | -6.5%
O=C(CSC1=NCCS1)N1CCCC1 | -1.2% | 0.3% | -0.1% | -2.1%[46.1 µM] | -4.5%[38.3 µM] | i | 8.4%
CC(C)CNC(=O)CSc1nnc(-c2ccc(Cl)cc2)n1N | 2.6% | 0.2% | -1.4% | 5.5% | -3.3% | -8.6% | 3.0%
Cc1ccc(OCc2nnc(SCC(=O)NCc3ccco3)n2C)cc1 | -8.5% | 2.1% | 0.0% | 19.4%[46.1 µM] | 4.3% | 14.4% | 2.1%
CCC(=O)Nc1cccc(-c2nnc(SCC(=O)NCc3ccco3)n2C)c1 | 2.0% | -6.0% | -1.3% | -8.0%[46.1 µM] | -4.4%[38.3 µM] | -7.4% | 1.0%
Fc1ccccc1Sc1ccccc1CNC1=NCCN1 | -1.4% | 0.3% | 5.6% | -1.4% | 24.8% | -4.3% | 5.3%
CCC1=NN(C(=O)C(=O)Nc2ccccc2OC)C(O)(C(F)(F)F)C1 (stereo unspecified) | -13.5% | -0.6% | 0.0% | -10.4%[46.1 µM] | -8.6%[38.3 µM] | -12.9% | 4.4%
Cc1cnccc1CNC(=O)CC1C(=O)NCCN1CC(C)(C)C (stereo unspecified) | · | -0.6% | -1.7% | -20.1% | 1.2% | 7.8% | ?
Cc1cccc(C)c1OCC(=O)NCc1nnc(SCC(=O)NC2CCCCC2C)n1C (stereo unspecified) | 22.4µM* | 2.4% | 4.3% | -7.2%[46.1 µM] | 10.1%[38.3 µM] | -0.2% | -5.3%
C/C(=N\O)c1ncc(C(F)(F)F)cc1Cl | · | 2.3% | -0.7% | -0.3% | -0.2% | -1.1% | -2.7%
COc1ccc(Cl)cc1NC(=O)Cn1c(=O)n2nc(C)nc2c2ccccc21 | -27.5% | 0.6% | 1.0% | -3.0%[46.1 µM] | 18.4%[38.3 µM] | 11.9% | -0.9%
Cn1c(Cc2ccccc2)nnc1SCCC(=O)Nc1ccccc1 | -5.7% | 0.2% | 1.5% | -4.0%[46.1 µM] | -7.5%[38.3 µM] | -0.5% | 0.7%
CCSc1nnc([C@@H]2CCCN2C(=O)OC(C)(C)C)o1 | -18.9% | -3.6% | -0.7% | 6.1%[46.1 µM] | -21.1%[38.3 µM] | -2.8% | -6.6%
Cc1ccccc1NC(=O)Nc1ccccc1N1CCCCC1 | · | · | 4.0% | ? | · | -6.9% | -1.2%
COc1cc(/C=C\c2ccc(OC)cc2OC)cc(OC)c1 | · | -11.9% | 1.0% | · | 6.6% | -3.0% | ?
Cc1ccc2nc(-c3ccc(NC(=O)COC(=O)c4ccc(=O)[nH]c4)cc3)sc2c1 | 1.58µM* | -1.9% | 0.0% | -6.6% | -5.9% | 4.2% | 6.4%
COc1cccc(C2CC(=O)N3CN(c4cccc(Cl)c4C)CSC3=C2C#N)c1OC (stereo unspecified) | -4.8% | 4.3% | 0.0% | -21.8%[46.1 µM] | -1.5%[38.3 µM] | -2.7% | ?

Profiles, quoted from the list. Screens in order: SMN2 splice enh, KinaseGlo FLuc, Epigenetic derep, NPSR antag, IMPase Li inh, RECQ1 helicase, KDM4E inh
Profile of Cc1ccccc1NC(=O)Nc1ccccc1N1CCCCC1 → ·, ·, 4.0%, ?, ·, -6.9%, -1.2%
Profile of Cc1ccc(N2C(SCC(=O)O)=NC(=Nc3cccc(C)c3)C23CCCC3)cc1 → -16.9%, -1.9%, 0.3%, -8.9%, -3.7%, -7.4%, -27.1%
